Compound activity as filed in PubChem.
BJeLR lethal: MLPCN primary cell-based screen for lethality selective to Ras in HRASV12 cells. BJeLR (HRASV12) viability, CellTiter-Glo ATP luminescence, 48 h; reference of the scale not given here. inhibition, % (test concentration not listed). 300,000 compounds, 0.17% hits. AID 1554, 2009;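 active means replicate mean above 50%; inconclusive means above 50% but judged a plate artefact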;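 further: 50 nL library stock added to about 25 µL; numbers are from one replicate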
Bead autofluor: compound fluorescence in toxin protease inhibitor counterscreen | compound autofluorescence counterscreen, microsphere flow cytometry; hits give high values | fluorescence intensity (concentration not given with the values) | 360,000 compounds, 3.1% hits | AID 624483;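 active means at least 3 SD above the mean of all compounds, about 16000 in these data; inconclusive means too few beads counted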;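 further: 100 nL of 1 mM stock went into each well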
Sa RN4220 lethal: growth inhibition of S. aureus RN4220, primary screen, OD600; 330,000 compounds, 0.33% hits; AID 1259311, 2017; 16 h; inhibition, % (no concentration beside the values);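 active means z-score of -3 or lower and OD600 up to 0.18 on both plates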;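 further: plate controls were untreated cells for no effect and reference antibiotic for full effect; stock transfer was 100 nL into about 80 µL; one replicate is shown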
Sa ugtP lethal: growth inhibition of ugtP-null S. aureus, primary screen, RN4220 ugtP deletion, OD600. growth inhibition, % (no concentration beside the values). 330,000 compounds, 0.54% hits. 16 h; some inactives read as strong as hits;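 active means z-score under -3 and OD600 up to 0.15 on both plates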;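 further: plate controls were untreated wells for no effect and antibiotic for full effect; wells of about 80 µL received 100 nL stock; the first replicate is given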
Mtb hypoxia inh: PubChem AID 1159583. M. tuberculosis hypoxia-regulated fluorescent reporter, fluorescence. fluorescence inhibition, % (test concentration not listed). 300,000 compounds, 0.1% hits;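 active means 35 to 45% if threefold the growth effect, above 45% if 1.5-fold the growth effect; inactive means the rest, general growth blockers included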;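 further: wells of about 50 µL received 100 nL stock; 0% = vehicle wells and 100% = reference inhibitor wells; whole bacteria with a GFP reporter of the hypoxia response; strong numbers were not always called active; many hits fall short of the cut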
PrP UTR inh: inhibition of PrP 5' UTR reporter expression; cell-based PrP 5' UTR mRNA reporter, plate reader; 340,000 compounds, 0.35% hits; inhibition, % (concentration not given with the values);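 active means every replicate at 50% or more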;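 further: 0 = median of the neutral control wells; tested in H4 reporter cells; numbers are from one replicate; inactives centre near -14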
Mtb hypoxia inh growth: further read-out of Mtb hypoxia inh, marked with its call; growth inhibition, %; measured here: M. tuberculosis growth (absorbance);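 0% = vehicle and 100% = reference antibiotic; read after six days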
* = called active by the depositor; ? = inconclusive; . = no result given; & = joins results of further samples.

SMILES	BJeLR lethal	Bead autofluor	Sa RN4220 lethal	Sa ugtP lethal	Mtb hypoxia inh	Mtb hypoxia inh growth	PrP UTR inh
CCCN=C(C)c1c(-c2ccccc2)[nH]n(-c2nc3ccccc3s2)c1=O	-8	3668	2.0	-9	1	0	-11
CCOc1ccc2nc(NC(=O)CN3CCN(c4ccccn4)CC3)sc2c1	-4	.	-2.2	-5	.	.	.
CNC(=O)/C(C#N)=C/c1ccc(-c2ccc(OC)cc2[N+](=O)[O-])o1	6	3822	5.0	-8	8	9	-20
COCCn1c(C)cc(C(=O)CSc2cc(C)c3ccc(OC)cc3n2)c1C	4	2688	3.4	-11	7	7	-1
CCOC(=O)N1CCC(NC(=O)c2sc3nc4n(c(=O)c3c2C)CCCC4)CC1	3	3620	1.2	0	3	8	-26
CCOc1ccccc1OCC(=O)Nc1ccc2[nH]c(=O)[nH]c2c1	.	3394	-1.8	1	-1	-3	-5
CCOC(=O)c1ccc(NC(=O)C2CCN(S(=O)(=O)c3ccccc3)CC2)cc1	-3	4605	-1.6	-12	3	8	-62
COc1cc(C2C(C(=O)c3ccco3)=C(O)C(=O)N2Cc2ccccc2)ccc1O (configuration not stated)	-6	3095	1.6	15	12	5	-24
O=C1CC2CS(=O)(=O)CC2N1C1CCCCC1 (configuration not stated)	-8	6071	0.6	11	.	.	-23
CCOC(=O)C1CCCN(C(=O)COc2ccc(S(=O)(=O)N3CCOCC3)cc2)C1 (configuration not stated)	.	4660	5.1	10	5	1	-19
O=C(O)C1CC(=O)N(c2ccc(F)c(F)c2)C1 (configuration not stated)	1	2076	-0.8	-4	.	.	-19
c1ccc(COC2CCCN(Cc3nc(-c4cnccn4)no3)C2)cc1 (configuration not stated)	2	3336	5.8	3	-5	2	-4
COc1ccc(-c2csc3nc(C(C)C)oc(=O)c23)cc1OC	-11	4456	5.3	2	0	0	-13
Cc1noc(C)c1CSc1nc2sc(C)c(C)c2c(=O)n1C1CCCC1	-6	?	7.2	69	10	0	-7
COc1cc(NC(=O)c2[nH]c(C)c(C(C)=O)c2C)cc(OC)c1OC	-6	5291	1.7	6	-2	3	-23
O=C(O)CSc1nnnn1C1CCCCC1	-3	4213	-1.4	0	2	0	-26
O=C(NC(=S)Nc1cccc2c(O)cccc12)c1ccccc1[N+](=O)[O-]	-7	5839	4.5	17	-10	-1	-11
Clc1ccccc1CN1CCSCC1	2	3421	4.8	5	-7	4	-29
Cc1nn(-c2ccccc2)c2nc(N)c(C(N)=O)cc12	-6	4264	-1.1	19	9	8	.
Cn1c(=O)oc2cc(S(=O)(=O)Nc3ccc4c(c3)OCO4)ccc21	0	15722	-4.5	-2	2	-3	-25
Cn1cccc1C(=O)N/N=C/c1c(Cl)cccc1Cl	0	4052	.	.	.	.	-57
CCCc1cc2c(=O)c(-c3cscn3)c(C(=O)OCC)oc2cc1O	2	2800	8.1	5	6	6	-19
Cc1cc(=O)n2[nH]c(SCc3ccccc3Cl)nc2n1	4	3487	5.8	5	4	3	-17
CC(=O)NC1=NN(C(C)=O)C(C)(c2ccc3ccccc3c2)S1 (configuration not stated)	5	2133	6.6	2	2	11	3
CN(C)S(=O)(=O)c1ccc(C(=O)Nc2ccccn2)cc1	7	10753	4.8	10	5	5	-52
O=C(NCC1CCCO1)C(=O)NCC(c1ccco1)N1CCN(c2ccccc2F)CC1 (configuration not stated)	-18	3104	3.4	14	14	-1	10
CC1=CC(C)C(c2ccc(C(F)(F)F)cc2)OC1=O (configuration not stated)	.	.	5.7	-2	9	9	.
CCOC1OC(C(=O)N2CCOCC2)=CC(c2ccc(Br)cc2)C1CCCO (configuration not stated)	.	.	5.5&3.7	-1&-9	6&10	1&10	.
O=C(NCCc1ccccc1)C(=O)NCC1OCCN1S(=O)(=O)c1ccc(Cl)cc1 (configuration not stated)	1	4345	2.1	15	4	8	-30
O=C(Nc1nccs1)c1cncc(Br)c1	-5	4497	1.2	5	5	3	-37
CCCCN(CC)C(=O)Cn1cnc2sc(C)c(S(=O)(=O)N3CCC(C)CC3)c2c1=O	-16	6008	1.9	2	-6	2	-19
CCCCn1c(N)c(N(CC(C)C)C(=O)c2ccc(Br)o2)c(=O)[nH]c1=O	-7	?	0.2	8	13	0	-18
CCC(=O)NC1(C(F)(F)F)C(=O)Nc2c1c(=O)[nH]c(=O)n2CC(C)C (configuration not stated)	-1	?	1.8	5	-12	-12	-25
Cc1ccc(C)c(NC(=O)CN(C)C(=O)c2ccc3ncsc3c2)c1	.	?	-1.9	5	3	-6	-17
COc1ccc(CCN=C(N)NS(=O)(=O)c2ccc(OC)cc2)cc1	14	2403	2.5	11	1	-2	-6
CCOC(=O)N1CCN(C(=O)c2cc(C)c3c(C)nn(-c4ccccc4)c3n2)CC1	-18	23022*	0.4	-6	4	9	1
Cc1ccc(-c2noc(CNS(=O)(=O)c3ccccc3)n2)cc1	0	5619	1.4	-5	2	3	-9
O=C1CC(N2CCOCC2)C(=O)N1Cc1ccc(N2CCCC2=O)cc1 (configuration not stated)	-1	5105	-0.9	1	.	.	-12
CCN(CC(=O)Nc1cc(Cl)ccc1-n1cncn1)Cc1nc2ccccc2c(=O)[nH]1	.	2903	7.2	3	-9	-7	1
O=C1c2cccc3cccc(c23)C(=O)N1Cc1cccnc1	8	4572	1.0	1	11	18	-24

Profiles, quoted from the list. Order of screens: BJeLR lethal	Bead autofluor	Sa RN4220 lethal	Sa ugtP lethal	Mtb hypoxia inh	Mtb hypoxia inh growth	PrP UTR inh
Shown for CCOC(=O)N1CCN(C(=O)c2cc(C)c3c(C)nn(-c4ccccc4)c3n2)CC1 → -18	23022*	0.4	-6	4	9	1
Shown for CN(C)S(=O)(=O)c1ccc(C(=O)Nc2ccccn2)cc1 → 7	10753	4.8	10	5	5	-52
Shown for CCC(=O)NC1(C(F)(F)F)C(=O)Nc2c1c(=O)[nH]c(=O)n2CC(C)C (configuration not stated) → -1	?	1.8	5	-12	-12	-25
Shown for COc1ccc(CCN=C(N)NS(=O)(=O)c2ccc(OC)cc2)cc1 → 14	2403	2.5	11	1	-2	-6
Shown for CCOC1OC(C(=O)N2CCOCC2)=CC(c2ccc(Br)cc2)C1CCCO (configuration not stated) → .	.	5.5&3.7	-1&-9	6&10	1&10	.

The listing picks up, starting 2 compounds before the break.
SMILES	BJeLR lethal	Bead autofluor	Sa RN4220 lethal	Sa ugtP lethal	Mtb hypoxia inh	Mtb hypoxia inh growth	PrP UTR inh
CCN(CC(=O)Nc1cc(Cl)ccc1-n1cncn1)Cc1nc2ccccc2c(=O)[nH]1	.	2903	7.2	3	-9	-7	1
O=C1c2cccc3cccc(c23)C(=O)N1Cc1cccnc1	8	4572	1.0	1	11	18	-24
CCOc1ccc(N2C(=O)NC(=O)/C(=C\c3ccc(N4CCOCC4)cc3C)C2=O)cc1	6	2425	1.7	8	-2	-4	7
CN(C)S(=O)(=O)c1ccc(/C(O)=C2/C(=O)C(=O)N(CCCN3CCOCC3)C2c2ccncc2)cc1 (configuration not stated)	-7	4451	1.8	8	1	-2	-6
COc1ccc(Br)cc1CNC(=O)C1CCCN(S(C)(=O)=O)C1 (configuration not stated)	-8	5177	3.6	5	4	7	-42
O=C(NCc1ccccc1Cl)c1cccc(C(F)(F)F)c1	3	1960	7.8	6	14	4	-11
COc1cccc(C(=O)Nc2nnc(-c3ccccc3)s2)c1OC	10	5486	3.9	-20	-1	4	-65
CC1CCN(C(=O)COC(=O)[C@H](C)NS(=O)(=O)/C=C/c2ccccc2)CC1	-9	5037	-0.7	6	.	.	-11
CSCC[C@H](NC(=O)C1CCCC1)c1nc2ccccc2[nH]1	-1	3400	-2.4	-1	-12	0	-1
Cc1ccc(C(C)(C)C)cc1S(=O)(=O)NC(=O)c1ccccc1	-1	4849	14	-5	-5	5	-26
Cc1c(C(=O)N2CC(C)OC(C)C2)sc2nc(-c3ccc(F)cc3)cn12 (configuration not stated)	0	8721	2.2	2	10	2	-24
CC1=CC2=NC(=O)/C(=C\c3ccc(OC(=O)c4ccco4)cc3)C(=N)N2O1	-3	2188	22	3	18	4	-17
CCOc1cc(-n2nc(C)c(C#N)c2N)nc(SC)n1	0	.	3.3	2	2	5	.
COc1ccccc1NC(=O)C(=O)NCC1COc2ccccc2O1 (configuration not stated)	6	10447	-1.6	19	6	3	-23
CCCCCCC(=O)N(O)C1CC(=O)N(c2ccc(C)cc2)C1=O (configuration not stated)	-3	2106	6.1	11	12	6	-11
CC(C)NC(=O)CC(c1ccccc1)c1cc(Br)ccc1O (configuration not stated)	-9	10221	1.1	2	-1	1	-22
Cc1cc(N2CCN(C(=O)c3ccco3)CC2)n2nc(-c3cccc(Cl)c3)cc2n1	-7	16545*	6.5	-6	8	1	0
COc1ccc(CC(=O)Nc2ccc(S(=O)(=O)Nc3onc(C)c3C)cc2)cc1OC	2	2955	-0.6	-3	11	2	-12
NN(Cc1ccccc1)C(=S)Nc1ccc(Cl)c(Cl)c1	5	3779	.	.	.	.	-15
COCCCNC(=O)Cn1c(=O)n(CCCCCC(=O)Nc2ccccc2)c(=O)c2sccc21	3	2076	3.0	-1	8	-1	-18
O=C(Nc1cc(C(=O)N2CCCC2)ccc1N1CCCC1)C1CC1	-4	22662*	0.2	-3	7	16	-61
CCOC(=O)c1cnn(CCOC(=O)C(C)(C)C)c1NC(=O)C(C)(C)C	-2	9307	3.3	-3	2	10	-2
N#C/C(C(=O)N1CCCCC1)=C1/N=C(N)c2ccccc21	3	2675	5.9	1	10	7	-7
COC(=O)COc1ccc(S(=O)(=O)N2CCCCCC2)cc1C	-5	3591	7.3	11	4	7	-28
O=C(Nc1ccc(F)cc1)c1ccc(S(=O)(=O)NCc2cccnc2)cc1	2	3682	-0.2	10	-4	4	-3
CCOC(=O)c1nn(-c2cccc(Cl)c2)c(C)c1C(C)=O	-6	3551	8.2	-1	-1	4	-21
CCC(C)c1ccccc1NC(=O)COC(=O)c1ccc2[nH]c3c(c2c1)CCCC3 (configuration not stated)	12	1975	-4.7	-21	1	-4	-7
CC(=O)NS(=O)(=O)c1ccc(N=NN2CCOCC2)cc1	-3	2449	-5.3	0	-1	3	-61
CC1CCCC(=C\c2ccccc2)/C1=N/O (configuration not stated)	-12	2392	.	.	.	.	-2
Nc1ccc2ccccc2c1C(=O)c1ccccc1	.	3874	4.5	-3	9	11	-9
CC(=O)OC1CC2CCC3C(CC[C@@]4(C)C3CC([N+]3(C)CCCCC3)C4OC(C)=O)[C@@]2(C)CC1[N+]1(C)CCCCC1 (some centres not stated)	.	.	6.8	10	3	1	.
CC(=O)c1c(C(C)=O)c(C)n(NC(=O)c2ccc(Cl)cc2)c1C	0	5347	-1.1	-5	1	9	-25
CCOC(=O)CCCn1c(C)nc(=O)c(-c2ccccc2)c1C	-8	2219	5.2	3	.	.	1
Cc1cc(OC(C)C(=O)NCC(O)c2ccccc2)c2c3c(c(=O)oc2c1)CCCC3 (configuration not stated)	-5	4685	3.3	3	-2	0	-29
S=C(Nc1ccc2c(c1)OCO2)NC1CCN(Cc2ccccc2)CC1	8	20636*	-0.4	-7	0	6	-15
COc1cc(OC)cc(C(=O)NNC(=O)CCCOc2ccccc2)c1	.	3504	-0.2	-1	-15	-5	-20
CC1CN(C(=O)c2ccccc2Oc2ccccc2)CC(C)O1 (configuration not stated)	-2	2111	3.8	-3	8	2	-26
Cc1n[nH]c(C)c1CCOc1ccc(C(C)C)cc1	6	3132	14	-9	7	1	-8
CCCCSc1nsc(NC(C)=O)n1	1	22275*	7.6	-6	17	11	-51
CC(/C=N\NC(=O)c1cccnc1)c1ccccc1 (configuration not stated)	2	8156	.	.	.	.	-1
Cc1ccc(C)c(NS(=O)(=O)c2c(C)nc3sccn3c2=O)c1	6	5272	11	11	3	1	-31
CC(/C=C/C=C/c1ccccc1)=N/NC(=O)CNc1ccc(C)cc1	-5	9056	.	.	.	.	-17
CSCC[C@H](NC(=O)C1CCN(S(=O)(=O)c2ccc(C)cc2)CC1)C(=O)NCc1ccco1	-8	6841	3.1	5	0	1	9
O=C(/C=C/c1ccc(O)cc1)c1ccc(NC2=C(N3CCCCC3)C(=O)c3ccccc3C2=O)cc1	13	10555	26	-12	8	16	-112
CCN(c1cccc(C)c1)S(=O)(=O)c1ccc(-c2ccc(=O)[nH]n2)o1	5	5996	3.9	6	6	-3	5
